Screens (PubChem)
CtBP-E1A blk: blocks the CtBP interaction with E1A; AlphaScreen GST-E1A/His-CtBP binding, 1536-well; active compounds read low; control for the full effect not named in the record; activity change, % (test concentration not listed); hit rate 0.49% among 340,000; in the data active means activity change below about -65%; inconclusive means about -30% to -65%; inactive means above about -30%; note: % is set by controls: 0 for no effect and ±100 for the full control effect
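Homogeneous bead-based format: GST-tagged E1A captured on glutathione donor beads, His-tagged CtBP on nickel acceptor beads; compounds precede bead addition by 2 h at 37 °C.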
Six1-Eya2 inh: inhibitors of human Six1/Eya2 interaction | Q15475+O00167 | AlphaScreen GST-Six1/His-Eya2 binding, biochemical; active compounds read low; control for the full effect not named in the record | activity change, % (concentration not given with the values) | hit rate 0.56% among 360,000 | AID 651725; in the data active = activity change below about -65%; inconclusive = about -30% to -65%; inactive = above about -30%; note: % is set by controls: 0 for no effect and ±100 for the full control effect
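Compounds are tested against tagged Six1 and Eya2 proteins bridged by glutathione donor and nickel acceptor beads; after a one-hour incubation at 37 °C without light, AlphaScreen emission is recorded.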
D2 PAM: potentiates the human D2 dopamine receptor allosterically | DiscoveRx D2 beta-arrestin cells, luminescence, 90 min; 100% = 57 uM dopamine signal | potentiation, % (no concentration beside the values) | hit rate 0.23% among 360,000; active = potentiation of 50% or more; inconclusive = 30% to 50%; inactive = 30% or less;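 note: compound concentration not given in the record; tested on top of an EC20 dose of dopamine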
Target sequence (P14416 whole entry, looked up): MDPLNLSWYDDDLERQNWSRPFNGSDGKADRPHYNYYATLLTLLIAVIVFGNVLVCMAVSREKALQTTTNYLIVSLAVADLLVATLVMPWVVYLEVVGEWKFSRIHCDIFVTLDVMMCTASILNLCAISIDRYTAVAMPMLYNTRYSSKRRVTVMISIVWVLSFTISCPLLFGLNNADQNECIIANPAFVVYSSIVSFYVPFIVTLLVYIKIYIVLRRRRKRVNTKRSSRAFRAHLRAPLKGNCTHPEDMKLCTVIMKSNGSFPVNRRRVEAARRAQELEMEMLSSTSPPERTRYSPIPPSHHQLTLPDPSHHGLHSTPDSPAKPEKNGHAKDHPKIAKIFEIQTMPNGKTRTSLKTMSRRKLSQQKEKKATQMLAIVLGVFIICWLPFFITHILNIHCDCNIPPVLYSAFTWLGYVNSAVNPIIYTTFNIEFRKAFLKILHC
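PathHunter D2 cells, attached overnight at 37 deg C, received compound in DMSO plus dopamine at EC20 (50 nM final) for 90 min at 37 deg C. Beta-arrestin recruitment was read as luminescence after 1 h with detection reagent at ambient temperature.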
TRPML1 inh: inhibitors of human TRPML1 channel; Q9GZU1; TRPML1-inducible cells, Ca2+ dye fluorescence, FDSS; active compounds read low; inhibition of EC80 agonist-evoked calcium signal; activity change, negative = inhibition, % (concentration not given with the values); hit rate 0.02% among 390,000; AID 624415; in the data active means activity change below about -50%; inconclusive means about -30% to -50%; inactive means above about -30%;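 note: stimulus is agonist 54-4 at its EC80 concentration; % is set by controls: 0 for no effect and ±100 for the full control effect; the text of the record puts the active cut at -80%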
Target sequence (Q9GZU1 whole entry, looked up): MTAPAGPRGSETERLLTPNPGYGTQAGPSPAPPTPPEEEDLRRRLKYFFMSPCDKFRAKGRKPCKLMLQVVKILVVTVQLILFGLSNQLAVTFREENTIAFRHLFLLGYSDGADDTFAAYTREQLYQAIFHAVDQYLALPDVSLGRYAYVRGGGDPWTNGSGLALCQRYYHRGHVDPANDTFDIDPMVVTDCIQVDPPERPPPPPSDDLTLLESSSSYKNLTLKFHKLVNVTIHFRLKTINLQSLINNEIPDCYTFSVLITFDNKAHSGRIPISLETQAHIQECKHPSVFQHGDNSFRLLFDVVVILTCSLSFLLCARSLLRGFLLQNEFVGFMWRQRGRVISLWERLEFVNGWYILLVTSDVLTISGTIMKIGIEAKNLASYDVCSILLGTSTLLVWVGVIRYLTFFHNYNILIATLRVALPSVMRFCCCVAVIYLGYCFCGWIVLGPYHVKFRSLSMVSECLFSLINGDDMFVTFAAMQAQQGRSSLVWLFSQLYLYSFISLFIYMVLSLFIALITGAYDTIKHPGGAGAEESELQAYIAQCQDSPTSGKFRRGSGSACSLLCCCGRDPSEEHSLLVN
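Calcium fluorescence in TRPML1-DL cells induced overnight with Tet: a 110 s read after compound pin addition, then a 110 s antagonist read after challenge with 54-4 at 4 uM final (EC80).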
TRPML1 agonist: human mucolipin-1 channel agonism. Q9GZU1. activation, % (concentration not given with the values). TRPML1-expressing cells, Ca2+ dye fluorescence, FDSS; host cell line not named in the record; reference of the full effect not given here. hit rate 0.12% among 410,000. AID 624414; in the data active = activation above about 50%; inconclusive = about 30% to 50%; inactive = below about 30%; note: 0% is about no effect; the text of the record puts the active cut at 80%
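Cells: TRPML1-DL, 1X Tet inducer, ~16 h at 37 degrees C/5% CO2. Dye: ABD Ca8 no-wash + quencher, 45-90 min RT. Read: 10 s baseline, compound add, 110 s agonist phase; 54-4 EC80 (4uM final), 110 s antagonist phase.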
TRPV1 PAM: enhances activation of the human vanilloid receptor TRPV1. Q8NER1. TRPV1-expressing cells, Fluo-8 calcium influx, capsaicin EC20 potentiation; host cell line not named in the record; control for the full effect not named in the record. potentiation, % at 8.33 µM. hit rate 0.02% among 320,000. AID 540277; active means potentiation above 80%; inconclusive means 30% to 80%; inactive means below 30%; note: 0% is about no effect
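Cells expressing TRPV1 were dye-loaded with Fluo-8 and read kinetically: 10 s baseline, 3 min after compound (agonist portion), then 2 min after EC20 capsaicin (allosteric enhancer portion). Calcium-bound dye fluorescence at 480/520 nm.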
Starred values were filed as active, the others as inactive; & = joins results of further samples.

`COc1ccccc1-c1cn[nH]c1-c1ccc(OCc2ccccc2F)cc1O` gave CtBP-E1A blk -3, Six1-Eya2 inh -12, D2 PAM 4, TRPML1 inh -8, TRPML1 agonist 0.4 and TRPV1 PAM 13.
`CC(=O)c1ccc(N2CCN(S(=O)(=O)c3c(C)[nH]c(=O)[nH]c3=O)CC2)cc1` gave CtBP-E1A blk -20, Six1-Eya2 inh 3, D2 PAM 2, TRPML1 inh -9, TRPML1 agonist 0.5 and TRPV1 PAM 3.
Cc1ccc2c(CC(=O)O)coc2c1 was read as CtBP-E1A blk -1, Six1-Eya2 inh 12, D2 PAM -3, TRPML1 inh -2, TRPML1 agonist 0.4 and TRPV1 PAM -8.
For Cc1cc(C)nc(/N=C(\N)Nc2ccc3c(c2)OCCO3)n1 the results were CtBP-E1A blk -4, Six1-Eya2 inh -5, D2 PAM -2, TRPML1 inh -15, TRPML1 agonist 12 and TRPV1 PAM 0.
Screening Cc1cc(S(=O)(=O)Nc2ccccc2C)ccc1F returned CtBP-E1A blk 4, Six1-Eya2 inh 6, D2 PAM -4, TRPML1 inh -10, TRPML1 agonist 0.3 and TRPV1 PAM 11.
COc1ccc(/C=C2/SC(=O)N(NS(=O)(=O)c3ccccc3)C2=S)cc1OC was read as CtBP-E1A blk -7, Six1-Eya2 inh -14, D2 PAM -12, TRPML1 inh 8, TRPML1 agonist 0.0 and TRPV1 PAM 3.
Screening CCc1cnccc1CCC(=O)Nc1ccccc1C returned Six1-Eya2 inh 5, D2 PAM 6, TRPML1 inh -8 and TRPML1 agonist 1.3.
Screening Brc1csc(/C=N/Nc2nc3ccccc3s2)c1 returned CtBP-E1A blk -7, Six1-Eya2 inh -12, D2 PAM -20, TRPML1 inh -9, TRPML1 agonist 0.7 and TRPV1 PAM 5.
Screening CN(C)CCCNC(=O)C1(O)c2cc(Br)ccc2NC(=O)N1c1ccc(Cl)cc1 (centres undefined) returned CtBP-E1A blk 0, Six1-Eya2 inh 2, D2 PAM -1, TRPML1 inh -19, TRPML1 agonist 0.6 and TRPV1 PAM 23.
`O=C(Nc1ccc(F)cc1F)c1ccc(-n2cncn2)nc1` gave CtBP-E1A blk 6, Six1-Eya2 inh 1, D2 PAM -1, TRPML1 inh 9, TRPML1 agonist -1.3 and TRPV1 PAM 16.
For Cc1ccc(S(=O)(=O)N2CCOCC2)cc1-c1n[nH]c(=S)n1-c1ccccc1 the results were CtBP-E1A blk 1, Six1-Eya2 inh -1, D2 PAM -3, TRPML1 inh -11, TRPML1 agonist 0.2 and TRPV1 PAM -4.
O=C(NCc1ccccn1)c1ccc(CNS(=O)(=O)c2cccc(C(F)(F)F)c2)cc1 was read as CtBP-E1A blk 0, Six1-Eya2 inh 17, D2 PAM -4, TRPML1 inh 9, TRPML1 agonist -0.7 and TRPV1 PAM 7.
For Cn1c(-n2cccc2)c(-c2c(-c3ccccc3)[nH]c3c2c(=O)[nH]c(=O)n3C)c(=O)[nH]c1=O the results were TRPML1 inh -5, TRPML1 agonist 1.7 and TRPV1 PAM -3.
Screening Cc1ccc2[nH]c(=O)c(CN(CCCN3CCOCC3)Cc3nnnn3C3CCCC3)cc2c1 returned CtBP-E1A blk 0, Six1-Eya2 inh 0, D2 PAM -19, TRPML1 inh 17, TRPML1 agonist 2.5 and TRPV1 PAM 1.
CCCC(c1nnnn1Cc1ccco1)N1CCN(C2CCCC2)CC1 (centres undefined) was read as CtBP-E1A blk 7, Six1-Eya2 inh 2, D2 PAM -11, TRPML1 inh -6, TRPML1 agonist 0.8 and TRPV1 PAM 3.
CCOC(=O)c1[nH]c(C)c(/C(O)=C2\C(=O)C(=O)N(CCN(C)C)C2c2ccco2)c1C (centres undefined) was read as CtBP-E1A blk -1, Six1-Eya2 inh 0, D2 PAM -9, TRPML1 inh 6, TRPML1 agonist -0.2 and TRPV1 PAM -29.
Screening COc1ccc(OCC(O)Cn2c(=N)n(CCN3CCCCC3)c3ccccc32)cc1 (centres undefined) returned CtBP-E1A blk -1, Six1-Eya2 inh -3, D2 PAM -12, TRPML1 inh -8&8, TRPML1 agonist -1.1&-0.8 and TRPV1 PAM 5.
CNc1nc2ccccc2n1CC(=O)c1ccccc1 was read as CtBP-E1A blk 7, Six1-Eya2 inh 10, D2 PAM -10, TRPML1 inh 55, TRPML1 agonist -0.1 and TRPV1 PAM 2.
CCOC(=O)COc1ccc(S(=O)(=O)c2ccc(OCC(=O)OCC)cc2)cc1 was read as CtBP-E1A blk 14, Six1-Eya2 inh 8, D2 PAM -6, TRPML1 inh 5, TRPML1 agonist 1.4 and TRPV1 PAM 10.
For Cc1ccc(-n2nnnc2SCC(=O)NC(=O)Nc2ccc3c(c2)OCCO3)cc1 the results were CtBP-E1A blk 1, Six1-Eya2 inh -9, D2 PAM 7, TRPML1 inh -11, TRPML1 agonist -0.2 and TRPV1 PAM 2.
For COc1ccc(NC(=O)CCNS(=O)(=O)c2ccc(Cl)c([N+](=O)[O-])c2)cc1S(N)(=O)=O the results were CtBP-E1A blk -7, Six1-Eya2 inh -9, D2 PAM -5, TRPML1 inh -18, TRPML1 agonist 2.5 and TRPV1 PAM 7.
Screening CCOC(=O)C1=C[C@@H](C(C)(C)C)N(S(=O)(=O)c2ccc(C)cc2)[C@H]1c1cccc2ccccc12 returned CtBP-E1A blk -5, Six1-Eya2 inh -8, D2 PAM 0 and TRPML1 agonist -0.3.
Screening O=c1[nH][nH]c2c1C(c1ccc(F)cc1)OC(CCc1ccccc1)C2 (centres undefined) returned CtBP-E1A blk -2, Six1-Eya2 inh -4 and TRPML1 agonist -0.1.
CCOC(=O)c1oc2ccc(CNC(C)(C)C)c(Cl)c2c1C was read as CtBP-E1A blk 2, Six1-Eya2 inh 0, D2 PAM -22, TRPML1 inh -10, TRPML1 agonist 0.7 and TRPV1 PAM 29.
`O=C(CN1C(=O)S/C(=C\c2ccccc2F)C1=O)NC1CCS(=O)(=O)C1` (centres undefined) gave CtBP-E1A blk -29, Six1-Eya2 inh -6, D2 PAM -9, TRPML1 inh -7, TRPML1 agonist -0.9 and TRPV1 PAM 29.
`COc1ccc(-c2cc(=O)c3cc(OC)c(OC)cc3[nH]2)cc1` gave CtBP-E1A blk -6, Six1-Eya2 inh -1, D2 PAM -32, TRPML1 inh -3, TRPML1 agonist -0.2 and TRPV1 PAM -1.
O=C1CCC(C(=O)N2CCSCC2)CN1Cc1ccc(Cl)cc1 (centres undefined) was read as Six1-Eya2 inh 5, D2 PAM -8, TRPML1 inh -6, TRPML1 agonist 2.3 and TRPV1 PAM -12.
For O=C(/C=C/c1cccc([N+](=O)[O-])c1)N1CC[C@@]2(O)CCCC[C@H]2C1 the results were CtBP-E1A blk 17, Six1-Eya2 inh 18, D2 PAM -10, TRPML1 inh 12, TRPML1 agonist 1.0 and TRPV1 PAM 8.
For CCOC(=O)c1ccc(-n2c(CN3CCN(CC)CC3)nc3ccc([N+](=O)[O-])cc3c2=O)cc1 the results were CtBP-E1A blk 0, Six1-Eya2 inh 8, D2 PAM 7, TRPML1 inh -13, TRPML1 agonist -0.4 and TRPV1 PAM -3.
CN(c1ccc(OCC(=O)NC2CCCC2)cc1)S(=O)(=O)c1cccs1 was read as CtBP-E1A blk -2, Six1-Eya2 inh 6, D2 PAM -13, TRPML1 inh 7, TRPML1 agonist -0.5 and TRPV1 PAM -2.

Reprinted from the part before: 5 compounds; new compounds follow.
`COc1ccc(-c2cc(=O)c3cc(OC)c(OC)cc3[nH]2)cc1` gave CtBP-E1A blk -6, Six1-Eya2 inh -1, D2 PAM -32, TRPML1 inh -3, TRPML1 agonist -0.2 and TRPV1 PAM -1.
O=C1CCC(C(=O)N2CCSCC2)CN1Cc1ccc(Cl)cc1 (centres undefined) was read as Six1-Eya2 inh 5, D2 PAM -8, TRPML1 inh -6, TRPML1 agonist 2.3 and TRPV1 PAM -12.
For O=C(/C=C/c1cccc([N+](=O)[O-])c1)N1CC[C@@]2(O)CCCC[C@H]2C1 the results were CtBP-E1A blk 17, Six1-Eya2 inh 18, D2 PAM -10, TRPML1 inh 12, TRPML1 agonist 1.0 and TRPV1 PAM 8.
For CCOC(=O)c1ccc(-n2c(CN3CCN(CC)CC3)nc3ccc([N+](=O)[O-])cc3c2=O)cc1 the results were CtBP-E1A blk 0, Six1-Eya2 inh 8, D2 PAM 7, TRPML1 inh -13, TRPML1 agonist -0.4 and TRPV1 PAM -3.
CN(c1ccc(OCC(=O)NC2CCCC2)cc1)S(=O)(=O)c1cccs1 was read as CtBP-E1A blk -2, Six1-Eya2 inh 6, D2 PAM -13, TRPML1 inh 7, TRPML1 agonist -0.5 and TRPV1 PAM -2.
CC(=O)c1ccccc1NC(=O)COC(=O)CCCN1C(=O)c2cccc3cccc(c23)C1=O was read as CtBP-E1A blk 9, Six1-Eya2 inh 11, D2 PAM -10, TRPML1 inh -3, TRPML1 agonist 0.0 and TRPV1 PAM 4.
Screening Cc1cc(Br)c(NC(=O)CN(C)CCOc2ccccc2)c(Br)c1 returned CtBP-E1A blk -3, Six1-Eya2 inh 2, D2 PAM -6, TRPML1 inh -17, TRPML1 agonist -0.4 and TRPV1 PAM -9.
Screening CS(=O)(=O)n1nc(-c2ccc(Cl)cc2)nc1N returned CtBP-E1A blk 3, Six1-Eya2 inh 5, D2 PAM -3, TRPML1 inh -19, TRPML1 agonist 1.6 and TRPV1 PAM 10.
`O=C(NN1C(=O)CSC1=S)C(=O)NN1C(=O)CSC1=S` gave CtBP-E1A blk inconclusive, Six1-Eya2 inh inconclusive, D2 PAM -10, TRPML1 inh 14, TRPML1 agonist 1.4 and TRPV1 PAM -2.
For COc1ccc(-n2cnc3cc(C(=O)NCC4CCCO4)ccc32)cc1 (centres undefined) the results were CtBP-E1A blk 6, Six1-Eya2 inh 0, D2 PAM -8, TRPML1 inh 30, TRPML1 agonist -1.0 and TRPV1 PAM 22.
Cn1c(O)c(/C=C2\C=Nc3ccccc32)sc1=Nc1ccc(C(=O)O)cc1 was read as Six1-Eya2 inh -10, D2 PAM -4, TRPML1 inh -10, TRPML1 agonist -0.7 and TRPV1 PAM -9.
`Cc1noc(C)c1S(=O)(=O)N1CCCC(C(=O)Nc2ccc(Cl)cn2)C1` (centres undefined) gave CtBP-E1A blk -2, Six1-Eya2 inh -1, D2 PAM -5, TRPML1 inh 36, TRPML1 agonist -0.2 and TRPV1 PAM -21.
`Cc1ccc(C(=O)Nc2cccc(NC(=O)c3cccs3)c2)c(C)c1` gave Six1-Eya2 inh 0, D2 PAM inconclusive and TRPV1 PAM -9.
`CCCCOCP(=O)(CCCC)COCCCC` gave CtBP-E1A blk 10, Six1-Eya2 inh -3, D2 PAM -8, TRPML1 inh 20, TRPML1 agonist -0.7 and TRPV1 PAM -20.
For Cc1ccc(NC(=O)/C(=C\c2cccnc2)NC(=O)c2ccco2)cc1 the results were CtBP-E1A blk 4, Six1-Eya2 inh 4, D2 PAM 1, TRPML1 inh 22, TRPML1 agonist -0.5 and TRPV1 PAM -21.
Screening CC(C)OC(=O)CSc1nnc(-c2ccc(Cl)cc2Cl)n1N returned CtBP-E1A blk 1, Six1-Eya2 inh 5, D2 PAM 3, TRPML1 inh 11, TRPML1 agonist 0.4 and TRPV1 PAM -7.
Screening COc1cccc(C(=O)NCCC2=CCCCC2)c1 returned CtBP-E1A blk 2, Six1-Eya2 inh 5, D2 PAM -29, TRPML1 inh -29, TRPML1 agonist -0.7 and TRPV1 PAM -12.
